Source: PubChem BioAssay (National Center for Advancing Translational Sciences (NCATS))
StopGo reporter: lowers the luciferase signal of an FMDV 2A StopGo reporter; Potency, µM (highest dose often 57.9 µM), without a hit: at the top dose signal change, negative = less light; 410,000 compounds, 1.2% hits; human cells with a luciferase reporter of 2A StopGo recoding; control for the full effect not named in the record; active = well fitted falling curve with a large enough effect; inconclusive = small, poorly fitted or top-dose-only effect; inactive = no such curve, though single readings can be large or run the other way; tested in HEK293T cells; further: on the % scale 0 is the no-effect control and ±100 the full control effect; nearly all actives have a fitted effect of over 45% in size; luciferase light after 4 h
RE007 growth inh: less growth of the S. pombe RE007 Vpr strain; S. pombe RE007 Vpr strain, BacTiter-Glo ATP luminescence, 24 h; control for the full effect not named in the record; Potency, µM (top dose mostly 92.2 µM), for inactives: at the highest dose activity change, negative = less growth; 360,000 compounds, 0.21% hits; AID 651644; active = well fitted falling curve with a large enough effect; inconclusive = small, poorly fitted or top-dose-only effect; inactive = no such curve, though single readings can be large or run the other way;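 further: on the % scale 0 is the no-effect control and ±100 the full control effect; nearly all actives have a fitted effect of over 50% in size; the assay follows cell death caused by Vpr and the record does not say whether a fall means rescue or toxicity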
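Fission yeast strain RE007, carrying one chromosomally integrated HIV-1 vpr copy, was seeded at OD 0.01 in PMG+AL medium with 23 nL pinned compound. After 24 h at 30 °C and 99% humidity, viability was read by BacTiter-Glo luminescence.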
Cruzain Triton: blocks cruzain activity in presence of Triton detergent; Potency, µM, for inactives: max response, negative = inhibition, actives largely listed as inhibitors; 200,000 compounds, 0.43% hits; purified cruzain, Z-FR-AMC fluorescence, 0.01% Triton;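 further: plate controls were neutral wells for no effect and buffer without enzyme for full effect; nearly all actives have a fitted effect of over 40% in size; top concentration of the series not given in the record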
Target sequence (P25779 123-467 limits assumed): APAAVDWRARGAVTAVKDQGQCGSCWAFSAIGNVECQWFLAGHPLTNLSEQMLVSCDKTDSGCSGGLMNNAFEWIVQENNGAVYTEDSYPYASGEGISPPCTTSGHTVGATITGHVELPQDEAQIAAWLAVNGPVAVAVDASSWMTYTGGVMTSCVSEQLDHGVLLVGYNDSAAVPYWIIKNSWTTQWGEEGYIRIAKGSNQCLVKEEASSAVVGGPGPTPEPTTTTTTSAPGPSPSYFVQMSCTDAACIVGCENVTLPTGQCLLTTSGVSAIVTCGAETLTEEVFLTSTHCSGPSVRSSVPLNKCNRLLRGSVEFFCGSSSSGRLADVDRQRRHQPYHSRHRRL
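Z-FR-AMC hydrolysis (2 uM substrate) by cruzain (1.5 nM) monitored kinetically at ex 360/em 450 nm after 15 min room-temperature compound exposure; 0.01% Triton X-100, pH 5.5, 5 mM DTT.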
NS1 function inh: inhibitors of influenza NS1 protein function. S. cerevisiae slowed by influenza A NS1, growth recovery by OD600. 270,000 compounds, 0.4% hits. Potency, µM (top dose mostly 46.1 µM), inactives show at the highest dose activity, positive = more growth; active means well fitted rising curve with a large enough effect; inconclusive means small, poorly fitted or top-dose-only effect; inactive means no such curve, though single readings can be large or run the other way; further: nearly all actives have a fitted effect of over 50% in size
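In this qHTS, NS1 from influenza A is expressed in budding yeast, where it slows growth. Cells are switched from glucose to 2% galactose medium (pH 6.0, -URA), treated with compound, and growth recovery is read at OD600.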
Lassa entry inh: Lassa virus entry inhibition. Potency, µM (top dose mostly 37.9 µM), for the others: top-dose activity change, negative = inhibition, hits mostly inhibitors. 300,000 compounds, 1.2% hits. Lassa virus pseudotype entry inhibition, cell reporter; control for the full effect not named in the record. AID 540256; active means well fitted inhibition curve with a large enough effect; inconclusive means small, poorly fitted or top-dose-only effect, or effect the other way; inactive means flat fitted curve, though single readings scatter; tested in HEK293 cells; further: on the % scale 0 is the no-effect control and ±100 the full control effect; nearly all actives have a fitted effect of over 50% in size; luciferase read-out
Cruzain noTriton: cruzain (T. cruzi) inhibition without detergent | P25779 | 200,000 compounds, 2.3% hits | purified cruzain, Z-FR-AMC fluorescence, no detergent | Potency, µM, inactives show max response, negative = inhibition, actives largely listed as inhibitors;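 further: plate controls were enzyme without inhibitor for no effect and buffer without enzyme for full effect; nearly all actives have a fitted effect of over 40% in size; top concentration of the series not given in the record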
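Purified cruzain at 1.5 nM, pre-incubated 15 min with compound at room temperature in 100 mM sodium acetate pH 5.5, 5 mM DTT, 0.00005% Triton X-100. Reaction started with 2 uM Z-FR-AMC; AMC fluorescence increase over 60 s gives rate.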
SARS PLP yeast: SARS-CoV PLP inhibition in yeast. S. cerevisiae expressing SARS-CoV PLpro, growth rescue; control for the full effect not named in the record. Potency, µM (doses to about 32.9 µM), inactives show at the highest dose activity, positive = growth rescue. 330,000 compounds, 0.19% hits. AID 485353; active means well fitted rising curve with a large enough effect; inconclusive means small, poorly fitted or top-dose-only effect; inactive means no such curve, though single readings can be large or run the other way; further: 0% is about no effect; nearly all actives have a fitted effect of over 55% in size; growth read by luminescence after 48 h
Marburg entry inh: inhibitors of Marburg virus binding or cell entry | Marburg virus pseudotyped entry inhibition, cell reporter; control for the full effect not named in the record; about a third of the inactives were read at about 46 µM | Potency, µM (series often up to 37.8 µM), without a hit: top-dose activity change, negative = inhibition, hits mostly inhibitors | 300,000 compounds, 1.8% hits; active = well fitted inhibition curve with a large enough effect; inconclusive = small, poorly fitted or top-dose-only effect, or effect the other way; inactive = flat fitted curve, though single readings scatter; tested in HEK293 cells; about a fifth of its hits are not listed in these tables; further: on the % scale 0 is the no-effect control and ±100 the full control effect; luciferase read-out
* = called active by the depositor; ? = inconclusive; / = not tested or not shown; [ ] = another dose, or the depositor's remark. Unless noted, the call rests on the fitted dose curve; in most records, active means well fitted curve in the direction sought with a large enough effect; inconclusive means small, poorly fitted or top-dose-only effect, or another doubt; inactive means no such curve, though single readings can be large; an effect the other way counts as inactive or inconclusive. Potency means the concentration at half of the fitted maximal effect.

No.	molecule	StopGo reporter	RE007 growth inh	Cruzain Triton	NS1 function inh
1	Cc1cc(C)c(O)c(-c2cc(C(=O)NCc3ccccc3)[nH]n2)c1	-6%	-4%	-9.1%	6%
2	CCOC(=O)CCCOC(=O)c1ccc(S(=O)(=O)N(C)C)cc1	-29%	7%	1.0%	-5%
3	CC(C)OCc1c(C(=O)OC/C(O)=C(\C#N)c2nc3ccccc3[nH]2)oc2ccccc12	-19%	1%	/	2%
4	Cc1nn(CC(=O)c2ccc3c(c2)OCCO3)c(=O)c(C#N)c1C	8%	-6%	/	/
5	CC(=O)c1cccc(Nc2ccc(-c3ccccc3F)nn2)c1	28%	4%	/	/
6	CCC(=NCCc1c(C)[nH]c2ccc(C)cc12)C1=C(O)CC(c2ccccc2)CC1=O (stereo not given)	0%	-5%	-4.0%	3%
7	CC(/C=C/c1ccccc1)=N\NC(=O)c1ccc2c(c1)OCCO2	-15%	-18%	-4.8%	-17%
8	O=C1NC(c2ccc(-c3ccccc3[N+](=O)[O-])o2)C(C(=O)c2ccccc2)C(O)(C(F)(F)F)N1 (stereo not given)	-9%	-16%	-6.4%	8%
9	Cc1c(Cl)cccc1Nc1nc2ccc(C(=O)c3ccccc3)cc2n2cnnc12	0%	/	-5.8%	/
10	CCC(=O)N1CCc2cc(S(=O)(=O)CCC(=O)NCc3ccco3)ccc21	-6%	16%	/	/
11	Cc1ccc(SCC(=O)OCC(=O)N(C)CC(=O)Nc2ccccc2Cl)cc1C	-19%	-4%	/	-43%
12	CCc1ccccc1N1CC(c2nc3ccccc3n2CCCCOc2ccccc2)CC1=O (stereo not given)	0%	/	-13%	/
13	Cc1nn(-c2ccccc2)c(C)c1C(=O)NNC(=O)C(F)(F)F	-8%	3%	/	1%
14	COc1ccc(NC(=O)C2(N(CC(C)C)C(=O)Cn3nnnc3N)CCCCC2)cc1	-4%	3%	4.3%	-5%
15	CCc1nn(C(CC)C(=O)NCCCN2CC(C)CC(C)C2)c(=O)c2cc3oc(C)cc3n12 (stereo not given)	-27%	-7%	/	-12%

No.	Lassa entry inh	Cruzain noTriton	SARS PLP yeast	Marburg entry inh
1	?	-3%	4%	?
2	1%	-11%	-5%	7%
3	2%[46.1 µM]	/	1%	-3%[46.1 µM]
4	27%[46.1 µM]	/	0%	-2%[46.1 µM]
5	-22%	/	-3%	?
6	?	?	-31%	?
7	?	-10%	10%	?
8	/	-6%	19%	5%
9	?	0%	/	/
10	-30%	/	1%	-13%
11	-7%	/	-1%	?
12	?	?	/	?
13	12%	/	1%	16%[14.2 µM]
14	25%	-5%	2%	12%
15	/	/	2%	/

The listing continues.
No.	molecule	StopGo reporter	RE007 growth inh	Cruzain Triton	NS1 function inh
16	O=C(NC1CCCC1)C(=O)N(Cc1cccnc1)C(C(=O)NCC1CCCO1)c1ccco1 (stereo not given)	25%	8%	/	2%
17	COC(=O)c1c(CCl)noc1C(=O)NCC1CCCO1 (stereo not given)	-16%	8%	5.8%	-3%
18	CCOC(=O)N1CCN(C(=O)c2cn(C)c3ccc(S(=O)(=O)N4CCCC4)cc3c2=O)CC1	11%	-6%	0.2%	-16%
19	COc1cnc(-c2cccc(C(F)(F)F)c2)[nH]c1=O	-8%	7%	/	-6%
20	CCC(=O)NS(=O)(=O)c1cccnc1Nc1ccccc1Cl	7%	5%	7.6%	1%
21	N#CCSc1nc2c(c(C3CC=CCC3)c1C#N)CCC2 (stereo not given)	?	-3%	-8.0%	-33%
22	Cc1cccc(C)c1NC(=O)CN1C(=O)NC(C)(CCc2ccccc2)C1=O (stereo not given)	-16%	-6%	/	-1%
23	CC(Sc1nnnn1C)C(=O)Nc1cc(S(=O)(=O)N2CCCCC2)ccc1Cl (stereo not given)	-7%	1%	/	/
24	Cc1ccc(-c2csc(NC(=O)Cc3ccc(F)cc3)n2)o1	4%	-17%	/	/
25	Cc1cc(NC(=O)NCc2ccccc2)c(=O)n(Cc2ccccc2F)c1	17%	4%	/	9%
26	CC1=CC(C)(C)N(C(=O)CSc2nnc(-c3ccc(C)cc3)o2)c2ccc(C)cc21	?	34%	2.7%	-5%
27	CCOc1ccc(-n2c(O)c(N=Nc3ccc([N+](=O)[O-])cc3)c(=O)[nH]c2=O)cc1	-2%	12%	/	6%
28	Nc1cc2c3c(cccc3c1)C(=O)N(CCN1CCCC1)C2=O	0%	2%	/	8%
29	CCn1c2ccccc2c2cc(NC(=O)CSc3nnc(-c4cccc(OC)c4)n3N)ccc21	-27%	-14%	0.5%	3%
30	COc1cc(-n2c(C)nc3cccnc32)c(Cl)cc1C(=O)O	21%	-13%	/	-1%

No.	Lassa entry inh	Cruzain noTriton	SARS PLP yeast	Marburg entry inh
16	/	/	0%	/
17	/	-1%	3%	/
18	-1%	-11%	5%	1%
19	0%[46.1 µM]	/	-1%	?
20	2%	4%	6%	2%
21	?	1%	-20%	-7%
22	/	/	2%	/
23	-2%	/	-1%	7%
24	-5%	/	-7%	3%[46.1 µM]
25	/	/	0%	/
26	?	3%	-25%	?
27	/	/	-1%	/
28	?	/	1%	6.3µM*
29	-26%	?	7%	?
30	/	/	2%	/

New compounds follow
No.	molecule	StopGo reporter	RE007 growth inh	Cruzain Triton	NS1 function inh
31	CCCc1cc(=O)[nH]c(SCC(=O)N2CCN(S(=O)(=O)c3ccc(C)cc3C)CC2)n1	-23%	15%	-4.5%	7%
32	Cc1cc(Cl)ccc1OCc1cn2cccnc2n1	47%[activator]	1%	/	/
33	Cc1c(NS(=O)(=O)c2ccccc2)ccc([N+](=O)[O-])c1Cl	7%	9%	/	/
34	CCOc1ccc(NC(=O)COC(=O)Cc2ccsc2)cc1	-10%	-24%	/	/
35	CCOC(=O)c1ccc(-n2cncn2)nc1	23%	-2%	-3.9%	-8%
36	Cc1sc2nc(CSCC(=O)Nc3ccccc3C#N)[nH]c(=O)c2c1C	-13%	-8%	-4.2%	20%
37	CSc1ccccc1NC(=O)CN(C)C(C)C(=O)Nc1ccc(C#N)cc1 (stereo not given)	-14%	-2%	/	/
38	Cc1c(CCNC(=O)c2ccc(C(C)(C)C)cc2)sc2nc(-c3ccc(F)cc3)nn12	-1%	/	-2.2%	/
39	CCN(CC)c1ccc(N)cc1S(=O)(=O)Nc1ccccc1OC	-5%	0%	/	-2%
40	Cc1cc(NCc2ccccn2)n2ncc(-c3ccccc3)c2n1	1%	?	/	-12%
41	CCCCc1cc(=O)oc2cc(C)cc(OCC(=O)N[C@@H](CSCc3ccccc3)C(=O)O)c12	-18%	5%	/	30%
42	CC(NC(=O)c1ccc(Br)s1)c1ccncc1 (stereo not given)	-9%	16%	/	-6%
43	COC(=O)c1ccc(NC(=O)CSc2nnc(C)n2-c2ccccc2)cc1	4%	9%	5.6%	-19%
44	CCN1C(=O)CS/C1=C(\C#N)S(=O)(=O)c1ccccc1	-21%	-18%	1.5%	?
45	NC(=O)c1ccsc1NC(=O)CSc1nnc2ccccn12	32%[activator]	3%	/	/

No.	Lassa entry inh	Cruzain noTriton	SARS PLP yeast	Marburg entry inh
31	1%	-21%	7%	?
32	-28%	/	-2%	5%[46.1 µM]
33	?	/	/	?
34	-2%	/	-5%	11%
35	8%	8%	-7%	18%
36	3%	-7%	9%	-18%
37	/	/	-1%	-27%[46.1 µM]
38	1%[46.1 µM]	?	/	/
39	/	/	4%	-17%[46.1 µM]
40	?	/	-2%	?
41	/	/	1%	/
42	?	/	-1%	?
43	6%	9%	/	-10%
44	-5%	-3%	3%	-3%
45	1%	/	-2%	16%

Shown as tab-separated lines: 3 of the compounds above.
#	SMILES	StopGo reporter	RE007 growth inh	Cruzain Triton	NS1 function inh	Lassa entry inh	Cruzain noTriton	SARS PLP yeast	Marburg entry inh
38	Cc1c(CCNC(=O)c2ccc(C(C)(C)C)cc2)sc2nc(-c3ccc(F)cc3)nn12	-1%	/	-2.2%	/	1%[46.1 µM]	?	/	/
39	CCN(CC)c1ccc(N)cc1S(=O)(=O)Nc1ccccc1OC	-5%	0%	/	-2%	/	/	4%	-17%[46.1 µM]
40	Cc1cc(NCc2ccccn2)n2ncc(-c3ccccc3)c2n1	1%	?	/	-12%	?	/	-2%	?

The list continues.
No.	molecule	StopGo reporter	RE007 growth inh	Cruzain Triton	NS1 function inh
46	O=C(CCOc1ccccc1)Nc1ccnn1C1CCN(C(=O)CCC(F)(F)F)CC1	7%	0%	/	-4%
47	Cc1ccc(-c2nc3ccccc3[nH]2)cc1NC(=O)/C=C/c1ccco1	28%	-11%	-7.3%	-244%
48	COC(=O)c1ccccc1NS(=O)(=O)c1ccc2c3c(cccc13)C(=O)N2	12%	-4%	-13%	-56%
49	O=C(Nc1ccc2c(c1)OCO2)C1CCCN(S(=O)(=O)c2cccs2)C1 (stereo not given)	?	-4%	-1.6%	2%
50	Cc1ccc(-c2nnn(CC(=O)NC3CCCc4ccccc43)n2)cc1 (stereo not given)	6%	-15%	1.9%	10%
51	O=C(NCCOC(=O)c1ccccc1)c1ccc([N+](=O)[O-])cc1	8%	-9%	/	6%

No.	Lassa entry inh	Cruzain noTriton	SARS PLP yeast	Marburg entry inh
46	/	/	-7%	/
47	21%[14.3 µM]	?	-15%	?
48	4%	?	-2%	-9%
49	-1%	-24%	-4%	15%
50	16%	?	4%	?
51	/	/	-3%	/

Rows were taken by chance, and some 4.7% of all compounds hit somewhere here.
